# T cruzi inh – blocks replication of Trypanosoma cruzi | T. cruzi beta-gal in NIH3T3, luminescence, 90 h | inhibition, % (no concentration beside the values) | actives 1.4% (n = 300,000) | AID 1885;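 active = mean inhibition across valid replicates above about 55%, limit read from the data; inconclusive = mean below that limit but half or more replicates reach it; inactive = mean below it, under half of replicates reach it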;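 also: signal also drops with host cell toxicity which is not excluded here; 0% = plate median of DMSO wells and 100% = zero luminescence signal; higher percent means less beta-gal luminescence so fewer parasites; stock transfer was 50 nL into about 50 µL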
# Bfl-1 A1 inh – inhibitors of the anti-apoptotic protein A1, read as caspase activation; MEF A1-2A-BIM cells, Caspase-Glo 3/7 luminescence, 3 h; percent of clofoctol response, vehicle zero; caspase activation, % (concentration not given with the values); actives 0.066% (n = 330,000);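 active = over half of replicate activation scores above 10%, or exactly half above 10 with the replicate mean above 10; inconclusive = replicate mean below 10 yet half the replicates above 10; inactive = over half of replicates below 10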;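 also: wells of about 30 µL received 50 nL stock; many hits fall short of the cut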
# Beta apoptosis – beta cell apoptosis inhibition; AID 435005; protection from apoptosis, % (no concentration beside the values); actives 0.8% (n = 300,000); INS-1E cytokine-induced death, ATP luminescence, 48 h; percent of positive-control rescue, neutral wells zero;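 active = all replicates at 75% or more, or half of them and the mean; inconclusive = half reach 75% but not the mean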;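 also: 0% = cytokine-treated negative control wells and 100% = positive control rescue; higher means more ATP so stronger rescue from cytokine killing; wells of about 40 µL received 100 nL stock; the first replicate is given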
# UCH37 inh – human UCH37 deubiquitinating enzyme inhibition. purified proteasome/UCH37, Ub-AMC cleavage fluorescence. inhibition, % (no concentration beside the values). actives 0.33% (n = 330,000);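 active = mean of two replicates above 20%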;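 also: 0% = compound-free wells with enzyme and 100% = wells lacking proteasome; stock transfer was 100 nL into about 20 µL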
# Target sequence (Q9Y5K5 whole entry, looked up): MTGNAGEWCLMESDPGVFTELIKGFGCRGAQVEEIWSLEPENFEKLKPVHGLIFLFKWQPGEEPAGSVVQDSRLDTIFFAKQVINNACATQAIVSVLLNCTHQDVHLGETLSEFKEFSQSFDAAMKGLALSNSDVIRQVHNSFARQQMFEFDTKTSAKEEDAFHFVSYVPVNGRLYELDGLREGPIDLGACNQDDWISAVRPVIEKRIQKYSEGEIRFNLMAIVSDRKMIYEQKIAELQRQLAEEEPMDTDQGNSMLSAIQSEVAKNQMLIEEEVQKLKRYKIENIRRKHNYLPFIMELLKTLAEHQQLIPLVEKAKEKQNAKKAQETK
#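 Reagent: Ub-AMC substrate; assay system: Proteasome-associated human UCH37 deubiquitinase; controls: no-proteasome and no-compound wells; read-out: % inhibition of Ub-AMC cleavage fluorescence; timing: 30 min preincubation with enzyme, 25 min cleavage at room temperature; signal: AMC fluorescence from Ub-AMC cleavage, excitation 355 nm, emission 460 nm; buffer or medium: Tris-HCl pH 7.4 plus ovalbumin, ATP-MgCl2, DTT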
# FGF22 binding – shifts melting point of recombinant human FGF22; Q9HCT0; recombinant FGF22 thermal shift, SYPRO orange fluorescence; percent of sucrose octasulfate shift, DMSO zero; calls only at 9.99 µM; actives 1.5% (n = 340,000); AID 651658;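 active = melting point raised past a set limit in the mean and every replicate; inconclusive = no clear call; three in four hits are not shown here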
# Target sequence (Q9HCT0 whole entry, looked up): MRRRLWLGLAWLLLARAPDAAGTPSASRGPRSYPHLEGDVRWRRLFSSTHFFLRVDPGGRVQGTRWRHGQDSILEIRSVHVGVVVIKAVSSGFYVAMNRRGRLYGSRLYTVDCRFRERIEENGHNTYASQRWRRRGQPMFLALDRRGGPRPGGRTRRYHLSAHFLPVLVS
# E coli growth – E. coli growth inhibition | actives 0.21% (n = 330,000) | OD600 absorbance (test concentration not listed) | Escherichia coli growth, OD600, 23 h; stronger effect = lower value;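 active = OD600 absorbance below the run mean of sample wells minus 3.6 SD, in any replicate, cut at about 0.56 in these data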;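 also: stock transfer was 300 nL into about 60 µL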
# MLL AF4-AF9 inh – MLL-AF4/AF9 protein interaction inhibition; AlphaScreen, biotin-AF4 peptide binding to FLAG-AF9; inhibition, % at 10 µM; actives 0.47% (n = 350,000); AID 651704;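 active = every replicate reaching a set inhibition limit, whatever the replicate mean, cut at about 25% in these data; inconclusive = mean inhibition reaches that limit but some replicates miss it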;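 also: 0% = plate neutral control median and 100% = total signal loss; the record names both 10 and 1 µM as test concentration; the first replicate is given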
# Target sequence (P42568 whole entry, looked up): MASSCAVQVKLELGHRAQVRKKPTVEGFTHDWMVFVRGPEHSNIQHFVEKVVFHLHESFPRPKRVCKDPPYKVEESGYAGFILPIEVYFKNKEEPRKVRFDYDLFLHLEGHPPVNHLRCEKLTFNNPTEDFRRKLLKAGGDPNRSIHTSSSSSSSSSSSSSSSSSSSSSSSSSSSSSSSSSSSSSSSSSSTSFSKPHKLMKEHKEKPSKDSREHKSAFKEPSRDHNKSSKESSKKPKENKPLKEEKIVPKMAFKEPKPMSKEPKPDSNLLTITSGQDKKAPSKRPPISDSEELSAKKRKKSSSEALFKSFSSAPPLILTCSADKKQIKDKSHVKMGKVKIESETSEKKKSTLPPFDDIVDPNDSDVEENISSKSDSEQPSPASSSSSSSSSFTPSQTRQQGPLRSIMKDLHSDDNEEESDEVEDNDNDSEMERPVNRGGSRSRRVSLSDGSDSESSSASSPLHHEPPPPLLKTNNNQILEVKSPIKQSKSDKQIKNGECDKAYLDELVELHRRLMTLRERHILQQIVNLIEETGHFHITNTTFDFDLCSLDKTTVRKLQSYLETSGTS
# Ecoli rRNA inh – selective bacterial rRNA inhibition in E. coli; actives 1.6% (n = 350,000); E. coli WT GFP vs humanized-ribosome RFP mutants, fluorescence, 24 h; stronger effect = lower value; DMSO median 0, no signal -100; GFP signal change (wild-type ribosome), % (concentration not given with the values);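 active = significant combined selectivity score with lowered wild-type GFP, culture density cut under 30%, mutant RFP and density less affected; inactive = any of these conditions unmet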; also: one replicate is shown; some compounds called inactive have numbers as strong as hits
# Ecoli rRNA inh OD600 – second read-out of Ecoli rRNA inh, no call of its own (marks repeat the call); OD600 change, %; measured here: OD600 growth;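 optical density of the mix in the first replicate; 0 = DMSO median and -100 = no signal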
# Ecoli rRNA inh RFP – further read-out of Ecoli rRNA inh, marked with its call; RFP signal change, %; measured here: RFP humanized mutant strains;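 first replicate; 0 = DMSO median and -100 = no signal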
# Starred values were filed as active, the others as inactive; i = inactive; ? = inconclusive; · = no result given; & = joins results of further samples. These rows are one share of the data, so the mix of outcomes need not match the whole.
molecule	T cruzi inh	Bfl-1 A1 inh	Beta apoptosis	UCH37 inh	FGF22 binding	E coli growth	MLL AF4-AF9 inh	Ecoli rRNA inh	Ecoli rRNA inh OD600	Ecoli rRNA inh RFP
O=CNc1ccccc1	·	0.4	-2.5	·	i	·	·	5.2	5.4	-1.2
O=C(O)C(F)(F)C(NCc1ccccc1)c1ccccc1 (stereo not given)	-10.7	0.1	-7.7	-1.8	i	0.674	4.6	9.0	2.2	-2.1
O=C(Cc1cc(=O)[nH][nH]1)N/N=C/c1ccccc1[N+](=O)[O-]	-5.5	0.3	-2.5	·	i	·	-1.6	6.5	0.9	-9.9
CCCCC(=O)Nc1ccc(C2C(=O)c3ccccc3C2=O)cc1	19.7	-4.4	-1.2	10.8	i	0.614	·	-3.8	1.8	-2.1
COc1ccc(NC(=O)CSc2nc3[nH]ncc3c(=O)n2-c2ccccc2C)cc1OC	-25.8	-0.2	·	1.0	·	0.658	·	·	·	·
CCOC(=O)c1[nH]ncc1CN1CCCC(C(=O)c2cccc(OC(C)C)c2)C1 (stereo not given)	26.7	0.1	-2.0	2.1	·	0.738	·	·	·	·
Cc1nn2c(=O)cc(CSc3ccccc3NC(=O)c3ccccc3F)nc2s1	3.8	0.5	-2.5	-0.7	i	0.702	-0.9	-6.1	-13.2	-0.3
Cc1cccc(OCC(=O)NNc2c3ccccc3nc3ccccc23)c1	28.0	0.2	23.9	0.6	i	0.77	5.9	-7.7	-16.8	1.0
CCN(CC(=O)Nc1c(F)cccc1F)C(=O)Cc1cccs1	·	·	·	1.0	i	0.692	-7.1	4.1	1.3	0.5
CCOC(=O)C1=C(O)C(=O)N(c2ccc(S(N)(=O)=O)cc2)C1c1ccc(OC)cc1OC (stereo not given)	0.8	0.9	-1.5	3.5	·	0.675	·	·	·	·
O=C(N/N=C/c1c[nH]c2ccccc12)c1ccncc1	-12.9	-0.3	1.0	·	i	·	5.9	2.4	16.9	4.9
CCOC(=O)c1ccccc1NC1c2ccccc2C(=O)N1C1CCN(C(=O)OCC)CC1 (stereo not given)	18.1	-0.3	5.9	-49.2	i	0.736	4.2	-4.5	-9.2	5.3
Nc1nc(Sc2ccc([N+](=O)[O-])cc2[N+](=O)[O-])n[nH]1	14.5	1.5	7.3	6.1	i	0.67	-7.2	-2.4	4.8	-1.7
CCc1cccc(NC(=O)COC(=O)c2cc([N+](=O)[O-])ccc2N2CCOCC2)c1	-10.0	0.0	-1.1	3.3	i	0.722	-5.7	9.2	7.1	-0.3
COc1ccc(OC)c(C2=NOC(C(=O)Nc3cccnc3)C2)c1 (stereo not given)	-4.0	-0.4	0.1	-3.6	·	0.697	·	·	·	·
O=S(=O)(NCC(O)c1ccccc1)c1cc(Cl)sc1Cl (stereo not given)	-21.8	-0.3	-7.8	0.5	i	0.68	-2.8	-1.1	-14.5	-7.3
Fc1ccccc1C1CC(c2ccco2)=Nc2ccccc2S1 (stereo not given)	14.4	-1.7	-1.4	0.6	i	0.679	-9.0	4.8	2.5	1.0
CCC(C)N(C(=O)COC(=O)c1cc([N+](=O)[O-])ccc1N1CCOCC1)C1CCS(=O)(=O)C1 (stereo not given)	-7.7	0.0	-1.6	5.9	i	0.69	6.3	1.1	1.7	-0.6
CN(C(=O)CSc1nc2c(cnn2-c2ccccc2)c(=O)[nH]1)C1CCS(=O)(=O)C1 (stereo not given)	-5.5	0.1	-5.6	2.9	i	0.67	·	18.4	7.9	1.5
Fc1cccc(F)c1-c1nc(-c2ccncc2)no1	13.4	-2.8	2.6	2.1	i	0.685	-0.9	5.2	6.9	0.1
COCCCN1C(=O)c2ccc(C(=O)OCC(=O)NCc3cccc(OC)c3)cc2C1=O	·	1.2	-3.2	-1.5	i	0.692	-2.2	-1.4	3.6	0.2
CN1CCN(CCCNC(=O)c2ccc3c(=O)n(CCc4ccccc4)c(=O)[nH]c3c2)CC1	22.2	0.2	-7.2	-47.3	i	0.651	4.3	7.1	13.2	0.8
COc1cc(NC(=O)c2ccccc2OCc2ccccc2)cc(OC)c1OC	12.0	0.3	28.0	0.8	i	0.706	-0.3	3.6	10.2	1.0
O=C(O)CCc1ccc(-c2cccs2)n1NC(=O)c1ccco1	-4.4	0.6	·	3.5	·	0.746	·	·	·	·
N#CC12CCCCC1CC1CCCCC1(C#N)N2Cc1ccccn1 (stereo not given)	-34.1	-0.5	-4.5	5.3	·	0.732	·	·	·	·
CC(=O)c1ccc(OC2OCCOC2Oc2ccc(C(C)=O)cc2)cc1 (stereo not given)	-33.4	-1.2	-3.5	3.0	i	0.727	-0.3	8.0	3.4	-0.2
Cc1cccc(C)c1NC(=O)CN(C)C(=O)c1cc(S(=O)(=O)N(C)C)ccc1N1CCCC1	0.7	?	-3.1	0.7	i	0.633	0.9	16.1	6.1	-1.8
O=C(CN1C(=O)NC2(CCc3ccccc32)C1=O)NCC(F)(F)F (stereo not given)	-8.8	0.1	2.7	3.6	i	0.674	0.9	6.7	7.8	-1.5
CC(C)N1CCNCC1	-5.1	-1.4	-4.5	1.3	i	0.718	2.8	12.7	20.1	2.6
COC(=O)c1nnn(-c2nc(N(C)C)nc(N(C)C)n2)c1C	-6.2	-0.6	-10.4	2.0	i	0.685	-3.8	15.7	22.1	5.6
CC(C)NC(=O)NC(=O)CSc1nnc(-c2c[nH]c3ccccc23)o1	1.4	0.4	-2.7	0.4	i	0.642	2.4	-0.1	11.8	-1.4
O=C(Cc1ccccc1)NCc1ccc(F)cc1	-15.7	0.1	-0.8	4.7	·	0.681	·	·	·	·
O=C(c1ccc(C(F)(F)F)cc1)C1CCCN(C(=O)c2cnccn2)C1 (stereo not given)	-1.5	-0.2	-15.4	2.0	i	0.647	5.9	1.2	-7.4	-2.4
CCOc1ccc(S(=O)(=O)N(C(=O)c2ccco2)c2cc3sc(=O)oc3c3ccccc23)cc1	-7.2	-0.1	98.9*	4.9	·	0.722	·	·	·	·
NNC(=O)c1cc2sccc2s1	3.9	0.5	-5.3	3.5	i	0.673	1.5	10.5	0.1	10.4
CC1(C)CC(=O)C(C=NCC2CCN(C(=S)Nc3ccccc3)CC2)=C(O)C1	-8.1	0.9	-8.8	3.7	i	0.645	-1.0	3.3	-15.4	-1.5
CCC(C)(C)n1nnnc1C(c1cc2cccc(C)c2[nH]c1=O)N1CCN(C(=O)c2ccco2)CC1 (stereo not given)	-15.2	-0.2	-12.6	-3.7	·	0.697	·	·	·	·
Cc1cc(Br)ccc1NC(=O)CN(C)C(=O)C1CCN(C(=O)c2ccc(Cl)cc2)CC1	·	·	·	4.0	i	0.697	11.1	-5.0	-12.2	-0.2
O=C(COc1ccc2c3c(c(=O)oc2c1)CCCC3)NCCN1CCOCC1	-2.9	-0.7	·	-35.2	·	0.681	·	0.4	4.3	-1.4
CN(Cc1ccccc1)S(=O)(=O)c1ccc(NC(=S)NC(=O)C(C)(C)C)cc1	22.8	-0.3	-7.0	2.0	i	0.698	3.2	-0.3	-8.2	-0.6
C[C@H](CO)N1C[C@H](C)[C@@H](CN(C)Cc2ccc(C(=O)O)cc2)Oc2c(NC(=O)C3CC3)cccc2C1=O	·	1.0	-2.3	-0.3	i	0.729	-0.1&3.7	2.7&-7.3	3.8&4.6	0.0&-5.4
Oc1c(C=Nc2ccccc2)sc(=S)n1Cc1ccccc1	14.5	0.3	11.1	4.9	·	0.732	-2.8	18.1	9.4	20.0
Cc1ccc(-n2cc(-c3ccccc3)c3c(=O)[nH]cnc32)cc1	4.6	-0.4	-0.8	0.0	i	0.681	-3.8	-14.1	-20.5	-1.5
Nc1nnnn1/N=C/c1cccc(Br)c1	-4.9	0.0	·	·	i	·	-4.1	1.0	7.0	0.2
O=S(=O)(Nc1cccc2nsnc12)c1ccccc1	-11.0	0.6	·	2.9	·	0.629	·	·	·	·
COc1ccc(-c2sc3ccc(OC)cc3c2C#Cc2cncn2C)cc1	·	-0.3	-7.2	-20.9	i	0.745	-2.6	7.6	0.2	-2.8
Cn1c(C(=O)NCc2ccccn2)cc2c(=O)n(C)c3ccccc3c21	9.5	-0.1	-0.4	-3.1	i	0.771	-3.7	-0.2	-8.3	-1.9
COc1ccc(S(=O)(=O)N2CCN(Cc3ccc4c(c3)OCO4)CC2)c2ccccc12	12.3	-0.5	-1.9	2.7	i	0.731	0.8	0.2	8.0	0.3
O=S(=O)(c1c(F)cccc1F)N1CCN(Cc2c(O)ccc3ccccc23)CC1	·	2.7	-2.1	0.3	i	0.626	-3.5	·	·	·
CCCCNC(=O)c1cccc(S(=O)(=O)N2CC3(C)CC2CC(C)(C)C3)c1 (stereo not given)	·	-0.1	12.0	3.5	i	0.637	-1.1	-17.8	-39.2	-8.1
COCCNC(=S)Nc1cc(OC)c(NC(=O)c2ccco2)cc1OC	-10.6	0.2	2.8	4.3	i	0.676	1.2	0.0	-6.0	5.9
N#Cc1ccc(C(=O)NC23CC4CC(CC(C4)C2)C3)cc1	-0.2	-1.2	-5.6	2.0	i	0.692	4.4	9.5	12.9	-0.6
COCCNc1nc(C)cc(-c2cc(-c3ccc(Cl)cc3)on2)n1	-6.9	1.1	3.8	-3.0	i	0.718	-1.5	5.1	13.4	-3.5
O=C(CCl)N1N=C(c2ccco2)CC1c1ccco1 (stereo not given)	0.5	-0.6	·	-2.4	i	0.692	-1.0	20.7	16.2	10.6
COc1ccc2c(-c3cc4ccc(OCc5ccc(F)cc5)cc4oc3=O)cc(=O)oc2c1	-8.1	9.6*	0.4	-66.3	i	0.729	1.3	18.4	18.4	0.8
Cc1nc2ncnn2c(C)c1CCC(=O)N1CCc2ccccc21	-7.5	1.5	0.3	5.0	·	0.731	·	·	·	·
CC1CCN(c2ccc([N+](=O)[O-])cc2C(=O)NCC2CCCO2)CC1 (stereo not given)	8.5	0.2	·	6.5	i	0.704	-1.7	-10.5	-14.1	-0.2
COc1cccc(C2C(C(=O)OC(C)C)=C(C)N=c3s/c(=C\c4ccc(C(=O)O)cc4)c(=O)n32)c1 (stereo not given)	-18.7	-0.6	-3.1	·	i	·	-1.5	-4.1	-1.4	0.7
CCCCSc1nc(CCC)cc(=O)[nH]1	-8.5	0.9	·	2.3	·	0.677	·	·	·	·
CCOC(=O)C(NC(=O)CC(C)C)(Nc1sc2c(c1C(N)=O)CCCC2)C(F)(F)F (stereo not given)	-7.8	0.7	-6.9	1.1	i	0.677	0.0	·	·	·
COc1ccc(OC)c(CN2CCN(c3ccc(S(=O)(=O)N4CCCC4)cn3)CC2)c1	·	-0.4	0.8	1.4	i	0.676	7.9	-1.4	-0.4	1.3
Nc1nc2ccc(S(=O)(=O)N3CCCCC3)cc2s1	46.4	-0.5	-4.8	7.1	i	0.696	-6.7	-12.1	-7.2	7.4
